Assay outcomes (PubChem)
CSC inhib – cancer stem cell inhibition | cancer stem cell-like cells viability, luminescence | 300,000 tested, 1.1% active | inhibition, % at 7.5 µM;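 active = mean at 75% or more and at least half the replicates too; inconclusive = mean and replicates disagree; tested in HMLE shEcad cells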;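 note: 0% = median of negative and 100% = median of positive control wells; the first replicate is given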
eIF4H inh – inhibitors of RNA binding by human eIF4H; inhibition, % at 35 µM; eIF4H fluorescence polarization binding assay; 290,000 tested, 0.94% active;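 active = 50% or more with normal probe brightness, or confirmed in later tests; inconclusive = above 50% with abnormal brightness, or retests that disagree; inactive = below 50% or failed in later tests; about a fifth of its hits are not listed in these tables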;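 note: calls also rest on retests at 20 µM and on dose response follow-up; 0% = protein and probe with vehicle and 100% = probe without protein; strong numbers were not always called active; many hits fall short of the cut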
MT1-MMP act inh – blocks activation of human MT1-MMP. GFP/RFP ratio change, % at 20 µM. AID 651647. 360,000 tested, 0.061% active. HT1080 RFP-PRO-GFP cells, GFP/RFP ratio fluorescence, overnight; percent of plate control window, DMSO zero. P50281;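 active = GFP/RFP ratio change of at least 30% with cell ATP level not reduced by more than half and red fluorescence within 50% of control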; note: strong numbers were not always called active
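Test system: HT1080 RFP-PRO-GFP cells; Benchmarks: DMSO and RFP-L50D-GFP cell wells; Timing: cells overnight before dosing, compound overnight, 37 °C, 5% CO2; Compound: one 20 µM compound dose with 1% DMSO; Read-out: GFP/RFP fluorescence ratio.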
PABP polyA inh – blocks human PABP binding to poly(A) RNA | 290,000 tested, 1% active | fluorescence polarization | inhibition, % at 35 µM | P11940 | AID 2014;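 active = 50% or more with normal probe brightness, or confirmed in later tests; inconclusive = above 50% with abnormal brightness, or retests that disagree; inactive = below 50% or failed in later tests; about a fifth of its hits are not listed in these tables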;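 note: calls also rest on retests at 20 µM and on dose response follow-up; controls were probe without protein and protein plus probe with vehicle; some compounds called inactive have numbers as strong as hits; many hits fall short of the cut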
Env fusion inh – inhibitors of HIV Env-mediated cell fusion | inhibition, % at 12.3 µM | 360,000 tested, 1.1% active | HeLa-JRFL Env/CEM21 cell fusion, luciferase | AID 651610;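 active = mean replicate inhibition score of at least 50 and every replicate individually at or above 50; inconclusive = only one of the two criteria met; inactive = mean below 50 and not all replicates reaching 50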;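 note: 0% = plate neutral controls and 100% = maraviroc near 300 nM; one replicate is shown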
UUG fidelity – yeast start codon fidelity modulation | S. cerevisiae UUG-firefly luciferase reporter, luminescence/redox ratio | activity score, % at 18.7 µM | AID 602363 | 350,000 tested, 0.13% active;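 active = replicate mean at a twofold rise or more, about +100% in these data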;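 note: firefly luciferase made from a UUG start codon reports start codon fidelity; reporter light over untreated wells divided by growth signal over untreated wells; some hits fall short of that in this replicate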
Rce1 inhib – yeast Ras-converting enzyme inhibition; yeast membranes, quenched prenylated peptide cleavage fluorescence; calls only; 290,000 tested, 0.27% active;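 active = fall in fluorescence gain of 50% or more versus controls, with final raw signal at or below 3038400; inconclusive = same 50% fall but final raw signal above 3038400; inactive = fall in fluorescence gain under 50%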;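 note: plate controls were neutral control wells for no effect and wells lacking membranes for full effect; tested at 10 µM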
Target sequence (Q03530 whole entry, looked up): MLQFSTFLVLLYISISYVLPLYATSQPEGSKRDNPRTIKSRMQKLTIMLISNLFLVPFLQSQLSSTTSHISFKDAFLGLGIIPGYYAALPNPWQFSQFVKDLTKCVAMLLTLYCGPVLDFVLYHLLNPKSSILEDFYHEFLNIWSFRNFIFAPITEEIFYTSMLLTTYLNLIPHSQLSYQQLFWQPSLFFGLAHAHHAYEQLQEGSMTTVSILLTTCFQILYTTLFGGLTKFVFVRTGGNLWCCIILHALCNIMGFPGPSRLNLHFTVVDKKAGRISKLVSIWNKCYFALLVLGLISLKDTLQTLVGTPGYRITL
MT1-MMP act inh RFP – also measured in MT1-MMP act inh; calls as there; RFP signal change, %; measured here: RFP expression control read;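 0 = vehicle wells; hits needed this value within 50% of zero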
* marks the source's active call; other numbers are inactive results; i = inactive; ? = inconclusive; / = no result given.

SMILES | CSC inhib | eIF4H inh | MT1-MMP act inh | MT1-MMP act inh RFP | PABP polyA inh | Env fusion inh | UUG fidelity | Rce1 inhib
CCOC(=O)N1CCN(C(=O)CNC(=O)c2ccc(Cl)cc2Cl)CC1 | / | / | 0 | 2 | / | 0 | -10 | /
CC(C)C(C(=O)NCc1ccccc1)N(CC1CCCO1)C(=O)CNS(=O)(=O)c1ccccc1 (stereo not given) | 5 | -1 | -4 | -3 | 4 | 8 | 1 | i
COC(=O)c1sc(N)c(C(=O)OC)c1COC(=O)CNS(=O)(=O)c1ccc(C)cc1 | -11 | -13 | 2 | 2 | -2 | 37 | -15 | i
O=C(CSc1nnc(-c2ccco2)n1-c1ccccc1)Nc1c(Cl)cc(Cl)cc1C(=O)O | -15 | / | 0 | -2 | / | -1 | -9 | /
O=C(COc1ccccc1)Nc1ccccc1NS(=O)(=O)c1cccs1 | -7 | -7 | 2 | 4 | -12 | 21 | / | i
CC(C)Sc1nc(SCC(=O)O)c2c3c(sc2n1)COC(C)(C)C3 | -2 | 1 | 0 | 0 | 3 | -12 | 4 | i
COc1cc(/C=C/C(=O)c2ccc3c(c2)OCO3)cc(Cl)c1O | 113* | -9 | -56 | 5 | -20 | -5 | -34 | i
COc1ccc(CNC(=O)COC(=O)/C=C/c2cccc(Br)c2)cc1 | 9 | -5 | -6 | -2 | -8 | -3 | / | i
O=C(COc1ccc2ccccc2c1)NNC(=O)Nc1ccc(F)cc1F | -10 | -5 | 0 | 1 | -2 | -6 | 2 | i
COc1ccc(-n2nc([N+](=O)[O-])c(=NCc3cccnc3)n2O)cc1 | -5 | 6 | 3 | 2 | 8 | / | -2 | i

Laid out differently: results already given
smiles,CSC inhib,eIF4H inh,MT1-MMP act inh,MT1-MMP act inh RFP,PABP polyA inh,Env fusion inh,UUG fidelity,Rce1 inhib
COC(=O)c1sc(N)c(C(=O)OC)c1COC(=O)CNS(=O)(=O)c1ccc(C)cc1,-11,-13,2,2,-2,37,-15,i
O=C(CSc1nnc(-c2ccco2)n1-c1ccccc1)Nc1c(Cl)cc(Cl)cc1C(=O)O,-15,/,0,-2,/,-1,-9,/
O=C(COc1ccccc1)Nc1ccccc1NS(=O)(=O)c1cccs1,-7,-7,2,4,-12,21,/,i

(next part)
SMILES | CSC inhib | eIF4H inh | MT1-MMP act inh | MT1-MMP act inh RFP | PABP polyA inh | Env fusion inh | UUG fidelity | Rce1 inhib
Cc1c(CC(=O)NCCCC(=O)O)c(=O)oc2cc3oc4c(c3cc12)CCCC4 | -13 | 5 | 4 | 5 | -9 | 26 | -13 | i
CCOc1ccc(-n2c(=O)c3ccccc3c3ccccc3c2=O)cc1 | 5 | -6 | -3 | 2 | 0 | -8 | / | i
O=C(NC(=S)Nn1cnc2c(cnn2-c2ccccc2)c1=O)c1ccc(Oc2ccccc2)cc1 | 15 | 10 | -1 | -8 | 4 | -39 | -26 | i
COC(=O)CN1C(=O)N/C(=C/c2cc3c(cc2OC)OCO3)C1=O | -3 | 2 | 0 | 4 | -4 | -13 | / | i
CCOc1ccc(NC(=O)c2ccncc2)cc1 | 4 | 1 | -13 | -18 | -2 | / | -16 | i
C=CCOc1c2ccc(C(=O)NCc3ccccc3OC)cc2nn1C | -9 | -4 | 13 | 5 | 6 | -21 | 8 | i
CCn1c(CN2CCOCC2)nnc1SCC(=O)Nc1ccccc1C | -5 | -15 | 2 | 5 | -1 | 5 | -22 | i
CCCCC(=O)N(CCOC)c1nnc(-c2cccnc2)s1 | 14 | 2 | 0 | 0 | 2 | 4 | 11 | i
O=C(COC(=O)COc1ccccc1)Nc1cccnc1Cl | -23 | / | -2 | -3 | / | -1 | -1 | /
Cc1ccc(NC(=O)c2cccc3c2-c2ccccc2C3=O)cc1C | -23 | 3 | 2 | 2 | -2 | -207 | -8 | i
Cc1cc(NS(=O)(=O)c2ccc(NC(=O)c3cc4ccccc4o3)cc2)nc(C)n1 | -2 | -12 | 6 | 5 | 9 | / | / | i
CCOc1ccc(C(=O)N2CCCN(C(=O)c3ccc(OCC)cc3)CC2)cc1 | 1 | 0 | 1 | -5 | -1 | / | -1 | i
CCn1cc(SCC(=O)NCc2ccc3c(c2)OCO3)c2ccccc21 | -4 | -4 | 0 | -1 | 9 | 67* | -13 | i
CCOc1ccc(C2NC(=O)c3sc(=S)n(-c4ccccc4)c3N2)cc1 (stereo not given) | -2 | -2 | 2 | 1 | 36 | 3 | / | i
COc1ccccc1NC(=O)Cc1nnc(SCC(=O)NC2=NCCS2)n1C | -3 | 0 | -4 | -1 | -7 | 2 | -12 | i
CCOC(=O)C1CCN(CC(=O)c2c(C)[nH]c3cc(C)ccc23)CC1 | -1 | 6 | 5 | 13 | 4 | / | -9 | i
CC(=O)/C(C#N)=C1\NC(=O)C(Cc2ccccc2C)S1 (stereo not given) | 46 | -7 | -33 | -8 | 6 | -17 | -34 | i
CC(C)C(=O)Nc1nnc(Cc2ccccc2)s1 | 8 | 10 | 6 | -1 | 1 | / | -8 | i
Cc1c(C(=O)Nc2nnc(C3CC3)s2)oc2c(Cl)cccc12 | 5 | / | -13 | -1 | / | 25 | / | i
CN(CC(=O)Nc1ccc(N2CCOCC2)cc1)C(=O)CCNC(=O)c1ccccc1Cl | 4 | / | 3 | 6 | / | -2 | 15 | i
COC(=O)C(CCSC)NC(=O)c1cc2c(n(-c3ccc(C)cc3)c1=O)CCCC2=O (stereo not given) | 0 | -2 | -3 | 2 | 5 | 10 | / | i
Cc1cc(N/N=C2/CCCc3ccccc32)nc2ccccc12 | -10 | -16 | -2 | -5 | 8 | -33 | -5 | i
CC1CCCN(CCCNC(=O)c2nn(C)c3c2CSc2ccccc2-3)C1 (stereo not given) | -1 | -8 | 8 | 3 | -2 | -3 | 4 | i
CN1CCN(C(=O)c2ccc(N(C)S(=O)(=O)c3cccs3)cc2)CC1 | -7 | -6 | -3 | 0 | 36 | 8 | -15 | i
Cc1c(N=C2C=C(Br)C(=O)C(Br)=C2)c(=O)n(-c2ccccc2)n1C | / | ? | 8 | 10 | 3 | -15 | / | /
Cc1ccc(O)c(C(=O)c2coc(=N)c(C(=O)NC(C)C)c2)c1 | -1 | -4 | -4 | 3 | 8 | -27 | -6 | i
Cc1ccc(S(=O)(=O)NNC(=S)NCCc2ccccc2)cc1 | 1 | 2 | 1 | 2 | 11 | -4 | / | i
COC(=O)c1cnc2c(C(F)(F)F)cccc2c1OC | -1 | -6 | 1 | 2 | 3 | / | -14 | /
COc1cc(Br)c(CN2C(=O)NC3(CCCCCC3)C2=O)cc1OC | -5 | 9 | -2 | -4 | -4 | -6 | -6 | i
O=C(NCCN1C(=O)S/C(=C\c2ccc(OC(F)F)cc2)C1=O)C1=COCCO1 | 27 | / | -14 | -15 | / | / | / | i

Limited to UUG fidelity, eIF4H inh and MT1-MMP act inh, for some of the entries so far:
SMILES | UUG fidelity | eIF4H inh | MT1-MMP act inh
Cc1ccc(O)c(C(=O)c2coc(=N)c(C(=O)NC(C)C)c2)c1 | -6 | -4 | -4
Cc1ccc(S(=O)(=O)NNC(=S)NCCc2ccccc2)cc1 | / | 2 | 1

(next part)
SMILES | CSC inhib | eIF4H inh | MT1-MMP act inh | MT1-MMP act inh RFP | PABP polyA inh | Env fusion inh | UUG fidelity | Rce1 inhib
Cc1nc(Cl)cc(N/N=C/c2ccc(O)cc2)n1 | 13 | -6 | 3 | -3 | 3 | -11 | -11 | i
Cc1ccccc1CSc1nnc(CCCCCNC(=O)OC(C)(C)C)o1 | 3 | 12 | -1 | -9 | 4 | 15 | -9 | i
C=CCC[C@@H](Cc1ccc(F)cc1)C(=O)OC[C@@H](NC(=O)[C@H](CC=C)CC(=O)NCCO)C(C)(C)C | / | / | -4 | -7 | / | 102* | -12 | /
COc1ccc(/C=C/c2nc3ccccc3n2Cc2ccc(OC)c(OC)c2)cc1 | 16 | -8 | / | / | -5 | -317 | / | i
Cc1ccc(CNC(=O)CN(C)S(=O)(=O)c2cccc3nsnc23)cc1 | 4 | -7 | 2 | 3 | -8 | / | / | i
O=C(CSc1nnnn1C1CCCCC1)Nc1ccccc1N1CCOCC1 | 0 | 0 | 2 | 0 | -3 | 10 | / | i
O=C(CC12CC3CC(CC(C3)C1)C2)N1CCCC1 | -3 | -2 | -3 | 3 | -2 | / | 12 | i
Cc1ccc(CNc2ncnc3ccc(-c4ccoc4C)cc23)o1 | / | / | -15 | -18 | / | 34 | -30 | /
O=C(CCNC(=O)c1ccco1)NCCc1ccc(Cl)cc1 | -5 | 9 | -2 | 0 | 7 | -3 | -11 | i
CN1C(=O)/C(=C/c2cn(CC(=O)NCc3ccco3)c3ccccc23)NC1=S | -6 | 3 | / | / | 3 | -10 | / | /
COc1cc(OC)cc(C(=O)N[C@H](C(=O)Nc2nc3ccc(S(C)(=O)=O)cc3s2)C(C)C)c1 | -4 | -1 | 1 | 4 | 3 | -2 | -11 | i
O=C(NC1CCCCC1)N(Cc1nc2ccccc2c(=O)[nH]1)C1CCCC1 | -5 | -3 | -12 | -10 | 2 | -44 | 13 | i
COc1ccc(C2=[N+]([O-])C(C)(C)N(O)C2C)cc1 (stereo not given) | 4 | -10 | 1 | 2 | -2 | -48 | -2 | i
Cc1csc(NC(=O)COCC(=O)O)c1-c1nc2ccccc2s1 | 0 | -3 | 1 | -2 | 4 | -2 | -8 | i
CC(C)(C)NC(=O)CSc1nc(O)cc(=O)n1-c1ccccc1F | -11 | ? | -75 | 4 | ? | -64 | -9 | i
CCOc1cc(/C=C2\C(=O)N(c3cccc(C(F)(F)F)c3)C(=O)c3ccccc32)ccc1O | 21 | -3 | -5 | 1 | 34 | -3 | -45 | i
O=C(C1CCCC1)N1CCN=C1SCc1cccc([N+](=O)[O-])c1 | -12 | -6 | 8 | 1 | -3 | 13 | / | i
O=C(N/N=C/c1cccs1)c1ccccn1 | -3 | 7 | 4 | 4 | -4 | -116 | / | i
COc1ccc(C)cc1NC(=O)Nc1cccc(C(=O)O)c1 | -4 | -15 | -2 | 3 | -2 | 16 | / | i
CC(=O)N1CCc2c(sc(NC(=O)Cc3ccc(F)cc3)c2C#N)C1 | 18 | -2 | 3 | 2 | 0 | -6 | -22 | i

Env fusion inh, hit marks shown above
smiles	MT1-MMP act inh	MT1-MMP act inh RFP	Env fusion inh	UUG fidelity	Rce1 inhib
CCn1cc(SCC(=O)NCc2ccc3c(c2)OCO3)c2ccccc21	0	-1	67*	-13	i
C=CCC[C@@H](Cc1ccc(F)cc1)C(=O)OC[C@@H](NC(=O)[C@H](CC=C)CC(=O)NCCO)C(C)(C)C	-4	-7	102*	-12	/

The listing continues:
SMILES | CSC inhib | eIF4H inh | MT1-MMP act inh | MT1-MMP act inh RFP | PABP polyA inh | Env fusion inh | UUG fidelity | Rce1 inhib
Cc1ccn2c(CNCCn3cccn3)c(C(=O)N3CCCCCC3)nc2c1 | -12 | 0 | 1 | 0 | -8 | -11 | / | i
Cc1ccc(-c2nn(-c3ccc(F)cc3)cc2C(=O)N2CCN(C3CCS(=O)(=O)C3)CC2)cc1 (stereo not given) | -10 | / | 0 | 2 | / | / | 1 | /
Cn1c(=O)c([N+](=O)[O-])c(Cl)c2ccccc21 | / | 4 | 10 | 10 | 22 | -95 | -38 | i
CC(=O)n1cc(Nc2ccccc2C(=O)O)c2ccccc21 | -4 | 2 | -2 | 6 | 2 | / | -7 | i
CC(C)(C)NC(=O)C(=O)NNC(=O)c1ccco1 | -11 | 12 | -5 | -5 | -4 | 9 | / | i
O=C(NCc1cccnc1)c1cccc(-c2cc3ccccc3oc2=O)c1 | 1 | -15 | 3 | -1 | -6 | -9 | / | i

Hits appear at their usual frequency; about 2.9% have a hit in one of these screens.
